Compound activity as filed in PubChem BioAssay.
Vaccinia inh: blocks a specific stage of Vaccinia orthopoxvirus infection. actives 0.01% (n = 89,000). Vaccinia-infected cells, mCherry/Venus stage reporter fluorescence; active compounds read low; some inactives read as strong as hits. activity change (mCherry), % (test concentration not listed);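 active = mCherry past -33% and 40 or more points under the early reporter, replicates agreeing; inconclusive = past -33% without that gap or agreement; tested in A549 cells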;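 note: scaled between vehicle wells and reference inhibitor wells; 23 nL library stock went into each well; one replicate is shown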
Vaccinia inh Venus: further read-out of Vaccinia inh, marked with its call; activity change (Venus), %; measured here: Venus reporter, other viral stage;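 negative = less Venus signal; first of two replicates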
Starred values were filed as active, the others as inactive; ? = inconclusive; . = not tested or not shown. Only part of the results is shown, so the mix of outcomes need not match the whole.

SMILES	Vaccinia inh	Vaccinia inh Venus
COc1ccc(NC(=O)N(C)C[C@@H]2OCc3ccccc3-c3c(n(C)c4ccccc34)C(=O)N([C@H](C)CO)C[C@H]2C)cc1	11.8	3.0
CO[C@H]1CC[C@@H]2CCOc3c(C#N)cccc3C(=O)N(C)C[C@@H](OC)[C@@H](C)C(=O)N(C)C[C@@H]1O2	12.9	7.2
N#Cc1ccc(-c2ccc([C@H]3[C@H]4CN(C(=O)Nc5ccc(F)cc5)CCCCN4[C@H]3CO)cc2)cc1	?	.
COC(=O)C[C@H]1CC[C@H](N)[C@@H](CO)O1	-0.2	11.0
C[C@H](CO)N1C[C@H](C)[C@@H](CN(C)C(=O)c2ccncc2)Oc2ncc(C#C[C@@H](C)O)cc2C1=O	29.1	19.6
C[C@@H]1CCCCO[C@@H](CN(C)S(C)(=O)=O)[C@H](C)CN([C@@H](C)CO)C(=O)c2cc(NC(=O)c3ccccc3)ccc2O1	-5.9	1.3
C[C@@H]1CCCCO[C@@H](CN(C)C(=O)c2ccccc2)[C@H](C)CN([C@@H](C)CO)C(=O)c2cc(NC(=O)Nc3cccc4ccccc34)ccc2O1	5.5	5.1
Cc1noc(C)c1NC(=O)Nc1ccc2c(c1)C(=O)N([C@H](C)CO)C[C@@H](C)[C@H](CN(C)S(=O)(=O)c1ccc(Cl)cc1)OCCCC[C@H](C)O2	11.9	10.7
COCC(=O)N1C[C@@H](C)[C@@H](OC)CN(C)C(=O)c2cc(NC(=O)c3ccc(OC)cc3)ccc2OC[C@@H]1C	16.7	11.0
COCC(=O)N1[C@H](CO)[C@@H]2c3ccccc3N(C(=O)c3ccncc3)C[C@@H]21	8.9	1.8

Some of these compounds in order of SMILES length, lowest first:
SMILES	Vaccinia inh	Vaccinia inh Venus
COC(=O)C[C@H]1CC[C@H](N)[C@@H](CO)O1	-0.2	11.0
CO[C@H]1CC[C@@H]2CCOc3c(C#N)cccc3C(=O)N(C)C[C@@H](OC)[C@@H](C)C(=O)N(C)C[C@@H]1O2	12.9	7.2
C[C@@H]1CCCCO[C@@H](CN(C)C(=O)c2ccccc2)[C@H](C)CN([C@@H](C)CO)C(=O)c2cc(NC(=O)Nc3cccc4ccccc34)ccc2O1	5.5	5.1
Cc1noc(C)c1NC(=O)Nc1ccc2c(c1)C(=O)N([C@H](C)CO)C[C@@H](C)[C@H](CN(C)S(=O)(=O)c1ccc(Cl)cc1)OCCCC[C@H](C)O2	11.9	10.7

Going on with the list:
SMILES	Vaccinia inh	Vaccinia inh Venus
C[C@H](NC(=O)[C@H]1[C@H](CO)[C@H]2Cn3c(cccc3=O)[C@H]2N1CC1CCCC1)c1ccccc1	2.4	2.4
O=C(NC1CCCC1)N[C@@H]1CC[C@@H](CC(=O)N2CCOCC2)O[C@H]1CO	-9.5	5.6
C[C@@H]1CN([C@@H](C)CO)C(=O)Cc2cc(NC(=O)NC3CCCCC3)ccc2O[C@H]1CN(C)S(=O)(=O)c1cccs1	0.4	-3.5
O=C(C[C@@H]1C[C@@H]2c3cc(NC(=O)C4CCOCC4)ccc3O[C@@H]2[C@H](CO)O1)NCc1cccnc1	31.0	27.4
CO[C@H]1O[C@H](CO)[C@@H](OC(=O)Nc2ccccc2)[C@H](OC(=O)Nc2ccccc2)[C@H]1OC(=O)Nc1ccccc1	?	.
COc1ccc2c3c(n(C)c2c1)[C@@H](CO)N(C(=O)Nc1ccc(F)cc1)CC31CCN(S(=O)(=O)c2cccc(F)c2)CC1	-18.4	-18.8
O=C(C[C@@H]1CC[C@@H](NC(=O)CC2CC2)[C@@H](CO)O1)NCc1ccc(Cl)cc1	11.9	11.7
COc1cccc(NC(=O)N(C)C[C@H]2Oc3cc(C#Cc4ccncc4)ccc3S(=O)(=O)N([C@H](C)CO)C[C@@H]2C)c1	?	.
C[C@@H]1CN([C@@H](C)CO)C(=O)c2cc(NC(=O)Cc3ccccc3)ccc2O[C@H]1CN(C)Cc1ccc(C(=O)O)cc1	18.3	1.2
CNC[C@H]1Oc2ccc(NS(=O)(=O)c3cccs3)cc2C(=O)N([C@@H](C)CO)C[C@@H]1C	7.5	5.6
CO[C@H]1CN(C)C(=O)c2ccc(NC(=O)Nc3cc(F)ccc3F)cc2OC[C@H](C)NC[C@@H]1C	-10.4	-11.0
C[C@@H]1CN([C@@H](C)CO)C(=O)Cc2cc(NS(=O)(=O)c3ccc(F)cc3)ccc2O[C@@H]1CN(C)C	2.8	-5.8
O=C(N[C@@H]1CC[C@H](CC(=O)N2CCc3ccccc3C2)O[C@H]1CO)C1CCC1	4.5	-2.4
CN(C)C(=O)C[C@@H]1C[C@@H]2c3cc(NC(=O)CC4CC4)ccc3O[C@@H]2[C@@H](CO)O1	-0.7	1.7
O=C(C[C@@H]1CC[C@@H]2[C@H](COC[C@@H](O)CN2Cc2cccc(Cl)c2)O1)N1CCCCC1	-18.1	-15.8
COc1cccc(C(=O)Nc2ccc3c(c2)C(=O)N(C)[C@H]2CC[C@@H](CC(=O)N[C@@H](C)c4ccccc4)O[C@H]2CO3)c1	-22.3	-11.1
N#C[C@H]1[C@@H](c2ccc(C#Cc3cccc(F)c3)cc2)[C@H](CO)N1C(=O)C1CCC1	?	.
C[C@H]1CN([C@@H](C)CO)C(=O)c2cc(NC(=O)CCCN(C)C)ccc2O[C@H]1CN(C)Cc1ccc(Oc2ccccc2)cc1	?	.
CNC[C@@H]1Oc2c(NC(=O)C3CC3)cccc2C(=O)N([C@@H](C)CO)C[C@@H]1C	6.3	12.8
CCCNC(=O)[C@@H]1[C@@H](CO)[C@@H]2Cn3c(cccc3=O)[C@@H]2N1C(=O)C1CC1	-1.0	-1.2
CCS(=O)(=O)N(C)C[C@H]1OCc2ccccc2-c2c(n(C)c3ccccc23)C(=O)N([C@H](C)CO)C[C@H]1C	19.9	21.4
COc1cccc(C(=O)Nc2ccc3c(c2)C(=O)N(C)C[C@H](OC)[C@@H](C)CN(CC2CC2)[C@@H](C)CO3)c1	-7.1	-4.2
CN1C(=O)c2cc(NC(=O)c3ccc(C(F)(F)F)cc3)ccc2OC[C@H]2O[C@@H](CC(=O)O)CC[C@H]21	-5.8	-13.4
C[C@@H]1CN([C@H](C)CO)C(=O)Cc2cc(NS(=O)(=O)c3ccccc3)ccc2O[C@@H]1CN(C)Cc1ccc(C(=O)O)cc1	15.6	5.4
C[C@@H]1CN([C@@H](C)CO)C(=O)c2cccc(NC(=O)Nc3ccccc3)c2O[C@H]1CN(C)Cc1ccc(C(=O)O)cc1	19.9	5.8
COc1ccc(NC(=O)Nc2ccc3c(c2)C(=O)N([C@H](C)CO)C[C@@H](C)[C@@H](CN(C)Cc2ccc(Cl)c(Cl)c2)OCCCC[C@H](C)O3)cc1	-16.0	-12.5
O=C(NCC[C@H]1CC[C@@H](NS(=O)(=O)c2ccc(F)cc2)[C@@H](CO)O1)c1ccc2c(c1)OCO2	-20.8	-12.4
O=C(C[C@H]1CC[C@H]2NC[C@H](O)COC[C@@H]2O1)Nc1ccccc1	0.7	0.4
CO[C@H]1CC[C@@H]2CCOc3c(C#N)cccc3C(=O)N(C)C[C@@H](c3ccccc3)CC(=O)N(C)C[C@H]1O2	-5.6	-0.7
COc1ccc(-c2cnc3c(c2)C(=O)N([C@@H](C)CO)C[C@H](C)[C@H](CN(C)C(=O)Cc2ccccn2)O3)cc1	19.6	11.6
CNC[C@H]1Oc2ccc(NC(=O)Nc3ccc4c(c3)OCO4)cc2CC(=O)N([C@@H](C)CO)C[C@@H]1C	4.2	8.3
C#CCNC(=O)C1=C[C@@H](c2ccccc2)C[C@@H](OCc2ccc(CO)cc2)O1	-0.3	4.9
O=C(C1CCCCC1)N1C[C@H]2[C@@H](c3ccccc31)[C@@H](CO)N2C(=O)c1ccccc1F	8.2	6.5
O=C(O)C[C@H]1C[C@H]2c3cc(NC(=O)NC4CCCC4)ccc3O[C@H]2[C@H](CO)O1	8.7	2.5
CCCNC(=O)[C@@H]1[C@@H](CO)[C@@H]2Cn3c(ccc(-c4ccc(F)cc4)c3=O)[C@@H]2N1CCC	7.4	6.6
CN(C)C(=O)C[C@@H]1CC[C@H]2[C@@H](COC[C@@H](O)CN2C(=O)C2CCOCC2)O1	13.1	7.6
O=C(C[C@@H]1C=C[C@@H](NC(=O)CC2CC2)[C@H](CO)O1)NCC(F)(F)F	18.1	14.6
O=C(c1ccncc1)N1CC(=O)N2[C@H](CO)[C@@H](c3ccc(-c4ccccc4F)cc3)[C@@H]2C1	-10.7	-9.0
O=C(Cc1ccncc1)NCC[C@H]1CC[C@@H](NC(=O)C2CC2)[C@@H](CO)O1	14.8	13.8
CO[C@@H]1CC[C@@H]2CCOc3c(C#N)cccc3C(=O)N(C)C[C@@H](OC)[C@H](C)C(=O)N(C)C[C@@H]1O2	11.1	14.2
CO[C@H]1CN(C)C(=O)c2cc(NC(=O)Nc3cc(F)ccc3F)ccc2OC[C@H](C)N(C(=O)c2cnccn2)C[C@@H]1C	4.2	4.3
CCCC(=O)Nc1ccc2c(c1)C(=O)N(C)C[C@H](OC)[C@@H](C)CN(Cc1cncnc1)[C@@H](C)CO2	12.0	7.0
O=C1CSC(c2ccccc2)N1c1ccccc1 (stereo unspecified)	22.3	6.4
N#C[C@@H]1[C@H](c2ccccc2)[C@H](CO)N1C(=O)c1cccnc1	15.5	6.6
C=CCOC(=O)[C@@H]1[C@H]2C(=O)O[C@H](c3ccccc3)[C@H](c3ccccc3)N2[C@H](c2ccc(OCCOC(=O)[C@@H]3C[C@@H]4C(=O)N5CCC[C@H]5C(=O)N4[C@@H]3c3ccc(O)cc3)cc2)[C@@]12C(=O)Nc1ccc(I)cc12	8.4	5.6
CC(C)NC(=O)N1[C@H](CO)[C@@H]2c3ccccc3N(C(=O)Nc3cccc(Cl)c3)C[C@@H]21	5.9	-0.6
C[C@H](CO)N1C[C@H](C)[C@H](CN(C)Cc2ccc3c(c2)OCO3)Oc2ccc(NC(=O)Cn3cnnn3)cc2CC1=O	14.0	18.3
C[C@@H]1CN([C@@H](C)CO)C(=O)CCCn2cc(nn2)CO[C@H]1CN(C)C(=O)Nc1ccc2c(c1)OCCO2	7.5	8.3
C[C@@H]1CN([C@H](C)CO)S(=O)(=O)c2ccc(C#Cc3ccccc3)cc2O[C@H]1CN(C)C(=O)C1CC1	-16.7	-14.6
CO[C@H]1CN(C)C(=O)c2cc(NC(=O)c3ccc(F)cc3)ccc2OC[C@H](C)N(C(=O)c2ccc(F)cc2)C[C@@H]1C	1.0	0.9

Carrying on:
SMILES	Vaccinia inh	Vaccinia inh Venus
C[C@@H]1CCCCO[C@@H](CN(C)C(=O)CCCN(C)C)[C@@H](C)CN([C@@H](C)CO)C(=O)c2cc(N(C)C)ccc2O1	-1.1	-5.7
COc1ccc(NC(=O)Nc2ccc3c(c2)C(=O)N([C@H](C)CO)C[C@@H](C)[C@@H](CN(C)Cc2ccc(C(=O)O)cc2)OCCCC[C@H](C)O3)cc1	28.8	8.6
C[C@@H]1CN([C@H](C)CO)C(=O)c2cc(NC(=O)CCC(F)(F)F)ccc2O[C@@H]1CN(C)C(=O)Nc1ccccc1	-15.3	-13.7
C[C@@H]1CN([C@H](C)CO)C(=O)c2cc(NC(=O)Cc3cn(C)c4ccccc34)ccc2O[C@H]1CN(C)C(=O)NC1CCCCC1	17.4	3.2
COc1ccccc1-c1cn(CC[C@@H]2CC[C@@H](NC(=O)C3CCCC3)[C@@H](CO)O2)nn1	-4.1	-1.5
N#C[C@@H]1[C@H](c2ccccc2-c2cccc(F)c2)[C@H](CO)N1C(=O)NC1CCCCC1	-22.5	-9.8
O=C(C[C@@H]1CC[C@@H]2[C@H](COC[C@@H](O)CN2Cc2cc(F)ccc2F)O1)NCc1ccccc1	6.5	-2.5
C[C@H]1CN([C@@H](C)CO)C(=O)c2cc(NS(=O)(=O)c3cccs3)ccc2O[C@@H]1CN(C)S(=O)(=O)c1ccccc1	20.2	11.2
O=C(N[C@H]1CC[C@@H](CCNS(=O)(=O)c2ccccc2)O[C@@H]1CO)c1cccc(F)c1	5.6	5.2
COc1cccc(NC(=O)N[C@H]2C=C[C@@H](CC(=O)NCc3ccccn3)O[C@@H]2CO)c1	-3.1	-3.0

Quoted from the listing.
Vaccinia inh Venus result of `O=C(N[C@H]1CC[C@@H](CCNS(=O)(=O)c2ccccc2)O[C@@H]1CO)c1cccc(F)c1` → 5.2
Vaccinia inh result of `C[C@@H]1CN([C@H](C)CO)C(=O)c2cc(NC(=O)CCC(F)(F)F)ccc2O[C@@H]1CN(C)C(=O)Nc1ccccc1` → -15.3

(list continues)
SMILES	Vaccinia inh	Vaccinia inh Venus
CCNC(=O)C[C@H]1CC[C@H](NS(=O)(=O)c2ccc(F)cc2)[C@@H](CO)O1	2.3	6.8
O=S(=O)(c1cccc(F)c1)N1CC[C@H]2[C@H](CO)Nc3ccc(Br)cc3[C@H]21	-34.3	-25.0
CO[C@H]1CN(C)C(=O)c2ccc(NC(=O)c3cccc(F)c3)cc2OC[C@@H](C)N(CC2CC2)C[C@@H]1C	-6.8	-5.9
COCC(=O)N1[C@@H]2CN(C(=O)c3cccnc3)c3ccccc3[C@@H]2[C@@H]1CO	5.4	5.9
Cc1ccc(S(=O)(=O)Nc2ccc3c(c2)C(=O)N([C@H](C)CO)C[C@@H](C)[C@H](CN(C)S(=O)(=O)c2cccs2)O3)cc1	6.0	-1.7
O=C(Nc1ccc(F)cc1)N[C@@H]1CC[C@H](CCn2cc(-c3ccc(F)cc3)nn2)O[C@H]1CO	3.0	5.0
COc1ccc(NC(=O)Nc2cccc3c2O[C@@H](CN(C)Cc2ccc(C(=O)Nc4ccccc4N)cc2)[C@@H](C)CN([C@H](C)CO)C3=O)cc1	3.2	1.4
C[C@H]1CN([C@@H](C)CO)C(=O)Cc2cc(NS(=O)(=O)c3cn(C)cn3)ccc2O[C@@H]1CN(C)C	12.3	12.4
CO[C@H]1CN(C)C(=O)c2cc(NC(=O)C3CC3)ccc2OC[C@@H](C)N(C(=O)c2ccncc2)C[C@H]1C	16.8	3.2
O=C(c1cnccn1)N1CC(=O)N2[C@H](CO)[C@@H](c3ccc(C#CC4CC4)cc3)[C@@H]2C1	11.3	6.0
C[C@@H]1CN([C@@H](C)CO)C(=O)c2cc(-c3cccc(C#N)c3)cnc2O[C@@H]1CN(C)C(=O)C1CCOCC1	16.8	9.7
